Screens: PubChem BioAssay, Fisher Drug Discovery Resource Center
NPYLR7 agonist – agonists of mosquito NPYLR7 receptor, primary screen, cell-based, Aedes aegypti, calcium fluorescence, mosquito biting behavior. Aedes aegypti neuropeptide Y-like receptor 7 (NPYLR7). HEK293T NPYLR7/Galpha15, GCaMP6s calcium fluorescence. activation, % at 10 µM. hit rate 0.15% among 270,000. AID 1259423, 2018; in the data active = activation above about 40%;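 also: 0% = vehicle and 100% = reference agonist at the receptor; some compounds past the cut are filed as inactive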
NPYLR7 agonist max-min – also measured in NPYLR7 agonist; calls as there; activation, %; measured here: Max-Min RFU normalised activation; some inactives read as strong as hits;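 span of the calcium signal over five minutes; 0% = vehicle and 100% = native peptide agonist; compound fluorescence can raise it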
An asterisk follows results filed as active; & = joins results of further samples.

Value order: NPYLR7 agonist | NPYLR7 agonist max-min
Cc1[nH]c2ccc(CNC(=O)C3CCCN(Cc4ccco4)C3)cc2c1C (stereo unspecified)
→ 19 | 8
CCOC(=O)CSC1=C(C#N)C(C)(C)C(C#N)C(=O)N1 (stereo unspecified)
→ 0 | -3
CCOc1ccccc1N1CCN(C(=O)c2cc(-c3ccc(OC)cc3)n(-c3ccccc3Cl)c2C)CC1
→ -1 | 11
Cc1nc2nc(C(F)(F)F)nn2c(C)c1CCC(=O)N(C)Cc1ccc(Cl)c(Cl)c1
→ 0 | 5
CC(C)(C)C1CCC(=NNc2nc3ccccc3s2)CC1 (stereo unspecified)
→ 3 | 1
CN1CCC(Cc2noc(-c3nn(C)c4c3CCCC4)n2)CC1
→ 6 | 1
CC(NC(=O)c1cccc(Cl)c1)c1nnc(SCc2ccccc2)n1-c1cc(Cl)ccc1Cl (stereo unspecified)
→ 16 | 26
O=C(Cn1nc2c(c1NC(=O)c1cnccn1)CSC2)NCC1CCCO1 (stereo unspecified)
→ -3 | -2
CN1CCN(C(CNC(=O)NCCc2ccccc2)c2ccc3c(c2)CCN3C)CC1 (stereo unspecified)
→ -6 | -12
Cc1ccc(C(=O)c2c(N)c(C#N)c3ccccn23)cc1C
→ -4 | -11
CCOC(=O)c1nc2ccccc2nc1N1CCCN(C(=O)c2ccco2)CC1
→ 5 | 1
CCC1(c2ccc(F)cc2)NC(=O)N(C(C)C(=O)Nc2ccccc2C#N)C1=O (stereo unspecified)
→ 6 | 4
COc1ccc(-n2c3c(c(=O)[nH]c2=O)C(C(F)(F)F)(C(F)(F)F)N=C(CC(C)C)N3)cc1
→ -11 | -18
OC(CNc1nccc(C(F)(F)F)n1)COc1ccc2c(c1)OCO2 (stereo unspecified)
→ 8 | 2
CC(=O)N1CCN(C(=O)c2ccc(OCc3ccc4ccccc4n3)cc2)CC1
→ 0 | -2
CC(=O)c1[nH]c(C)c(C(C)=O)c1C
→ 3 | -1
c1ccc(COc2ccccc2CNC2CCCc3ccccc32)nc1 (stereo unspecified)
→ -4 | -4
CCOC(=O)C1CCN(C(=O)CCc2csc(NC(=O)NC3CCCCC3)n2)CC1
→ -3 | -5
Cc1ccc(-n2nc(C(=O)NCC(C)C)c(=O)n(Cc3cccnc3)c2=O)cc1
→ 15 | 20
Cc1cc(OCC(=O)NC(C)c2ccccn2)ccc1Cl (stereo unspecified)
→ 14 | 15
Cc1ccccc1Oc1ncccc1CNC(=O)CCn1nnnc1C
→ 1 | 0
CCNC(=O)[C@@H]1C[C@@H](N)CN1C(=O)c1ccc(Cn2ccc3ccccc32)o1
→ 36 | 22
COCCn1cc(OC(C)=O)c2c1nc(C)n1c3ccccc3nc21
→ -3 | -6
CCCCNC(=O)C1(C)CCN1C(=O)c1ccc(OC)c(F)c1 (stereo unspecified)
→ 4 | 1
CCc1nc(CN(C)C(=O)c2cc(NC(C)=O)ccc2Cl)no1
→ 9 | 1
Cn1cc(CN2CCN(c3nc(-c4ccccc4)nc4c3CCC4)CC2)cn1
→ -4 | -7
COc1cccc(OC)c1OCCCOc1ccc(Br)cc1Cl
→ -6 | -2
O/N=C1/CCCc2c1nc(-c1ccccc1Cl)n2O
→ -2 | 12
CN(CC(=O)N1CCN2C(=O)CN(C)C(=O)C2C1)Cc1ccc(F)cc1 (stereo unspecified)
→ 7 | 5
Cc1cc(C(=O)Nc2cccc(-c3nc4ccccc4o3)c2)ccc1[N+](=O)[O-]
→ -8 | -13

Next records:
Value order: NPYLR7 agonist | NPYLR7 agonist max-min
CNCc1cn[nH]c1-c1ccc(F)cc1
→ -9 | -17
CCOC(=O)C1(C)CCN1C(=O)c1cccc(OC)c1 (stereo unspecified)
→ -3 | -2
N#CC(=C(O)CSc1n[nH]c(N)n1)c1nc2ccccc2s1
→ 4 | 0
NC(c1csc(Nc2cc(NCc3ccco3)ncn2)n1)c1ccccc1Cl (stereo unspecified)
→ -8 | -13
COc1ccc(CC(=O)N(CCn2cccn2)c2nc3c(F)cccc3s2)cc1C
→ -16 | -20
COCCOc1nc(-c2cccc(F)c2)n(-c2cccc(NC(=O)Nc3cccc(OC)c3)c2)n1
→ 20 | 32
CC1(C)CC(=O)C2=C(C1)c1oc(N)nc1C2c1ccc(-c2ccc(F)cc2)o1 (stereo unspecified)
→ 0 | -4
CCn1nc(C(C)C)cc1C(=O)NCc1ccc2nonc2c1
→ 17 | 14
CCCSc1nnc(CSc2nc(C)cc(C)n2)n1C
→ 4 | 1
Cc1nc(C(C)C)sc1C(=O)N(C)Cc1cc(C(C)C)on1
→ 8 | 4
CC(c1ncc(C(C)(C)C)o1)S(=O)(=O)c1nnc(NC2CCCCC2)s1 (stereo unspecified)
→ 9 | 7
C=CCN(CC=C)Cn1nc(Nc2ccccc2F)sc1=S
→ 3 | 63
COCCN(CC(=O)Nc1cc(-c2ccccc2)nn1-c1ccccc1)C(=O)Cc1ccc(OC)cc1
→ -3 | 3
CC(C)C1CN(C(=O)c2c[nH]c(=O)cn2)CCCN1Cc1ccc(F)cc1 (stereo unspecified)
→ -4 | -6
COCCNC(=O)C1(C)CCN(Cc2csc(-c3ccc(Cl)cc3)n2)C1 (stereo unspecified)
→ 3 | -3
CN1CC2(CCN(C(=O)c3ccc4c(c3)OCCO4)CC2)CC1C(=O)O (stereo unspecified)
→ 2 | 1
CC1(C)CC(=O)C=C(C(=O)Nc2ccccc2C(=O)N2CCCCCC2)O1
→ -4 | -9
O=C(CCNC(=O)C12CC3CC(CC(C3)C1)C2)N1CCC(C(=O)N2CCOCC2)CC1
→ 27 | 24
Cc1cc(O)ccc1NC(=O)CC(NCCC1=CCCCC1)C(=O)O (stereo unspecified)
→ -2 | -2
COC(=O)c1cc2n(n1)CCCN(CCOCc1ccccc1)C2
→ 20 | 10
Cc1ncsc1CCC(=O)N1CCc2c([nH]c3ccccc23)C1c1ccccc1F (stereo unspecified)
→ 6 | -4
O=C(NN=Cc1ccc(F)cc1)c1cc(C23CC4CC(CC(C4)C2)C3)[nH]n1
→ 4 | 3
COCc1nc(-c2ccccc2)nc(N2CCN(C(=O)CC(C)C)CC2)c1Cc1ccccc1F
→ 7 | 11
Cc1nc2ccccc2nc1OCC(=O)c1ccc(Cl)c(Cl)c1
→ -7 | -8
CCOC(=O)C(=O)N1CCC(=O)N(C)C[C@H]2COc3c(OCC)cccc3[C@H]21
→ 2 | 9
COc1cc(CN2CCN(C3CCC3)CC2CCO)cc(OC)c1 (stereo unspecified)
→ 5 | 2
CNC(=O)CN(CCCO)c1ccccc1
→ 18 | 9
COc1ccc2sc(N(Cc3cccnc3)C(=O)CCS(=O)(=O)c3ccccc3)nc2c1
→ -6 | -3
CNC(=O)C(C#N)C(=O)C(C)c1cccc(Cl)c1 (stereo unspecified)
→ 4 | 1
COc1ccccc1CNc1nc(C(C)(C)C)nc2c1cnn2C
→ 6 | 5

(further entries)
Value order: NPYLR7 agonist | NPYLR7 agonist max-min
Oc1c(Br)cc(C=NN2CCOCC2)cc1Br
→ -8 | -10
O=C(c1cc(F)ccc1I)N1CCCC1
→ 1 | 0
Clc1ccc2nc(-c3cccnc3)cc(-c3ccccc3)c2c1
→ 2 | -1
CCN(CC)c1ccc(CN(CCOC)C(=O)C2CCC2)c(OS(C)(=O)=O)c1
→ 26 | 30
C=CCSC1=C(C#N)C2(CCCC2)C(C#N)C(=O)N1 (stereo unspecified)
→ -4&9 | -4&7
CCOP(=O)(OCC)C(NC(=O)NC1CCCCC1)C(F)(F)F (stereo unspecified)
→ 0 | -3
c1ccc(-n2cc(-c3nc4c(cnn4Cc4cccs4)[nH]3)cn2)cc1
→ -9 | -18
O=C(N[C@H]1CO[C@H]2[C@@H]1OC[C@@H]2n1nnnc1Oc1ccc2c(c1)OCO2)c1cncnc1
→ 25 | 19
Cc1ccc(NC(=O)CC2SC(=Nc3ccccc3)N(c3ccccc3)C2=O)cc1 (stereo unspecified)
→ -5 | -10
CCOC(=O)C1CCN(C(=O)CSc2nc(Cl)cc(N3CCN(C(=O)C4CCCC4)CC3)n2)CC1
→ -10 | -8
CC1C(=O)N(c2cccc(Br)c2)CCN1C(=O)c1ccc(C(F)(F)F)cc1 (stereo unspecified)
→ 1 | 12
CN(C)C(=O)c1ccc(C(=O)OCc2ccc(N(C)C)cc2)cc1
→ 7 | 5
O=S(=O)(NCC1(N2CCCCC2)CCCCC1)c1cccs1
→ 1 | 7
Cc1cccc(CN2CCN(Cc3ccc(-c4ccccn4)cc3)CC2)c1
→ 4 | 4
Cc1ocnc1C(=O)N1CCc2[nH]nc(-c3ccc(-c4ccccc4)cc3)c2C1
→ 11 | 8
COc1ccccc1C(=O)Nc1nc(-c2ccc(C#N)cc2)cs1
→ -7 | -3
COc1ccc(S(=O)(=O)Nc2ccc(I)cc2)cc1N
→ 3 | 1
CCN(CC(=O)Nc1c(F)cccc1F)Cc1cc([N+](=O)[O-])cc2c1OCOC2
→ -4 | -4
COc1ccc(C(=O)Nc2nc(-c3ccccc3OC)cs2)cc1OC
→ -2 | -10
CCCCN(C)C(=O)CC1C(=O)NCCN1Cc1cccc2ccccc12 (stereo unspecified)
→ 9 | 2
COC(=O)c1ccc(C2c3sc(=O)[nH]c3SC3C(=O)N(CC(=O)O)C(=O)C32)cc1 (stereo unspecified)
→ 10 | 8
CNC(=S)N(Cc1ccc(S(N)(=O)=O)cc1)C1CC(=O)N(c2ccc(OC)cc2)C1=O (stereo unspecified)
→ -2 | -5
CNC(=O)[C@@]1(OCc2cccc(Cl)c2)CC(OCc2ccc(C#N)cc2)[C@@H]2OC(C)(C)O[C@@H]2C1 (stereo partly specified)
→ 3 | 4
Cc1cc(C2CCCN2Cc2ncccc2C(=O)O)on1 (stereo unspecified)
→ 6 | -2
Cc1cc(C)n(CC2CCN(C(=O)C3CCN(S(C)(=O)=O)CC3)CC2)n1
→ 2 | -3
O=C(NCCCS(=O)(=O)N1CCN(c2ccccn2)CC1)C1(c2ccc(Cl)cc2)CCCC1
→ -9 | -10
Cc1c(C)c(C(=O)Nc2cccc(F)c2)n(Cc2cccc(F)c2)c1C
→ 20 | 20
COc1ccc(S(=O)(=O)NCC2CCCO2)cc1N1CCN(C(=O)c2ccccc2OC(F)(F)F)CC1 (stereo unspecified)
→ 14 | 11
Cc1n[nH]c(C)c1C(=O)N1CCC(c2n[nH]c(=O)n2-c2ccccc2)CC1
→ 0 | -1
O=C(Nc1ccc(N2CCNC2=O)cc1)c1ccc(F)cc1
→ -1 | -1

Complete entries, quoted from the list. Order of screens: NPYLR7 agonist	NPYLR7 agonist max-min
Entry for O=S(=O)(NCC1(N2CCCCC2)CCCCC1)c1cccs1 → 1	7
Entry for COc1ccc(S(=O)(=O)Nc2ccc(I)cc2)cc1N → 3	1

A second format for part of the listing above.
CCOc1ccccc1N1CCN(C(=O)c2cc(-c3ccc(OC)cc3)n(-c3ccccc3Cl)c2C)CC1
  NPYLR7 agonist = -1
  NPYLR7 agonist max-min = 11
Cc1nc2nc(C(F)(F)F)nn2c(C)c1CCC(=O)N(C)Cc1ccc(Cl)c(Cl)c1
  NPYLR7 agonist = 0
  NPYLR7 agonist max-min = 5
CC(C)(C)C1CCC(=NNc2nc3ccccc3s2)CC1 (stereo unspecified)
  NPYLR7 agonist = 3
  NPYLR7 agonist max-min = 1
CN1CCC(Cc2noc(-c3nn(C)c4c3CCCC4)n2)CC1
  NPYLR7 agonist = 6
  NPYLR7 agonist max-min = 1

The list continues.
structure	NPYLR7 agonist	NPYLR7 agonist max-min
CNC(=O)[C@H]1C[C@]2(CCCCN(CCOC)C2=O)N(C(=O)OCC(C)C)[C@H]1c1ccco1	7	12
CCC(C(=O)N(CC(=O)N(Cc1ccccc1)Cc1ccc(C)s1)C1CCCCC1)c1ccccc1 (stereo unspecified)	23	32
CC1(C(=O)Nc2cccc(C#N)c2)CCN1C(=O)C1(c2ccccc2)CC1 (stereo unspecified)	-1	19
Cn1ccnc1COc1ccc2c(-c3ccccc3)noc2n1	-7	-8
C=CCC(O)(CC=C)c1ccc(CN(CCC)Cc2ccc(C)s2)o1	-1	6
COc1cc(OC)cc(C(=O)NC2CCN(c3ccccc3C(=O)NCC3CCCO3)CC2)c1 (stereo unspecified)	0	4
COc1cn(CC(=O)NCc2ccc(F)cc2)c(CN2CCCCC2)cc1=O	-1	-3
O=c1oc(-c2cccs2)nn1CC(O)c1ccccc1 (stereo unspecified)	-21	-24
CCOCCNCC(C)C(=O)OC (stereo unspecified)	-10	-11
Cc1ccc(C)c(Nc2nc(N3CCN(CCO)CC3)nc3nccnc23)c1	0	6

New compounds follow:
structure	NPYLR7 agonist	NPYLR7 agonist max-min
Cc1ccccc1C(=O)NCCc1cc2c(C)ccc(C)c2[nH]c1=O	-3	12
CCCN1C(=O)NC(=O)C1=O	-8	-7
COC(=O)c1ccc(C(=O)OC)c(NC(=O)c2cc3cc(OC)ccc3oc2=O)c1	-4	-11
C(=C\c1ccccc1)/CN1CCc2[nH]nc(-c3ccc4c(c3)OCO4)c2C1	4	3
CCn1ncc(C(=O)NCc2nc3cc(C(C)(C)C)ccc3o2)c1C	2	-1
CCc1c(C)nc(-c2cccc(C)c2)nc1N1CCN(C(=O)c2cccc3ccccc23)CC1	5	14
Cc1cccn2c(=O)cc(CSc3nnnn3C3CCCC3)nc12	11	17
COc1ccc(CCN(Cc2ccc(C)s2)C(=O)CN(C(=O)Nc2ccc(Cl)c(Cl)c2)C2CC2)cc1OC	8	15
CCOC(=O)CCCC(=O)N1CCc2cc(OC)c(OC)cc2C1c1ccc(F)cc1 (stereo unspecified)	9	3
c1ccc(OCCSc2nnc3sc4ccccc4n23)cc1	2	0

The listing continues.
structure	NPYLR7 agonist	NPYLR7 agonist max-min
Cc1c(NCc2cccnc2)cccc1C(=O)NCc1cccc2[nH]ccc12	21	12
Cn1cccc1C1C2C(=O)CC(C)(C)CC2=Nc2ccccc2N1C(=O)Cc1ccccc1 (stereo unspecified)	2	1
Cc1cccc(CN2CCC3(CCOCC3)CC2)c1O	1	0
O=C(CCC1CCCCC1)Nn1cnc2c(cnn2-c2ccccc2)c1=O	2	1

Not all compounds are listed. The share of hits here may be higher or lower than overall.
